# High-throughput results deposited in PubChem BioAssay by National Center for Advancing Translational Sciences (NCATS).
# AmpC inh no det: inhibitors of E. coli AmpC beta-lactamase without detergent; actives 1.8% (n = 71,000); Potency, µM (top dose mostly 28.7 µM), for inactives: at the highest dose activity change, negative = inhibition; AID 585; P00811; AmpC nitrocefin hydrolysis, absorbance 480 nm, no detergent; potencies from a single point are estimates; active = falling curve, for most hits resting on a single point; inconclusive = weak or doubtful change; inactive = flat or rising curve; further: % of control where 0% means no effect; about half of the hits show no inhibition at the top dose; a quarter of the inactives give rising signals
# Target sequence (P00811 whole entry, looked up): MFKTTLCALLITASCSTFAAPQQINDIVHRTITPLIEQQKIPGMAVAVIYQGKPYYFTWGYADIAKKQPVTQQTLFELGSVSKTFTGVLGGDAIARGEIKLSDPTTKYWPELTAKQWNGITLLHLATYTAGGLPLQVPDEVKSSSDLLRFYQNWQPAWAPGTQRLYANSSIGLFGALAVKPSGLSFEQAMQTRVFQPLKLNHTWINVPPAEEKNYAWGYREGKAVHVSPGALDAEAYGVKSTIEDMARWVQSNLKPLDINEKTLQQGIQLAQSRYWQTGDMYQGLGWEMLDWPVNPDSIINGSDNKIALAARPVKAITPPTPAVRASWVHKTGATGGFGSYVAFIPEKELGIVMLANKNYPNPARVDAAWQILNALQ
#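 AmpC, 20 mM phosphate pH 7.0; 15 min cpd preinc, RT; start with nitrocefin (800 uM stock); A480 kinetic read, 20 s intervals, 4 min. No-enzyme wells = negative control.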
# * hit, by the source's call; ! = not confirmed by another sample; [ ] = another dose, or the depositor's remark. Potency means the concentration at half of the fitted maximal effect. Some of the compounds tested. The share of hits here may be higher or lower than overall.
SMILES,AmpC inh no det
Cc1ccc(S(=O)(=O)N2CCC(C(=O)N[C@H](C(=O)N3CCN(C)CC3)C(C)C)CC2)cc1,44%
COc1ccc(N=C2SC(C(=O)O)CC(=O)N2C)cc1 (stereo not drawn),0%
O=C(O)CSC1CC(=O)N(c2ccc(Cl)cc2)C1=O (stereo not drawn),-6%
COC(=O)c1nc(NC2=NCCCCC2)n[nH]1,-6%
CCCCCC(=O)N1CCN(CCN=CC2=C(O)CC(c3ccco3)CC2=O)CC1 (stereo not drawn),99%
COc1ccc(N(C(=O)c2ccco2)S(=O)(=O)c2cc(OC)ccc2OC)cc1,50%
O=C(c1ccc2c(=O)n(-c3ccccc3)c(=O)[nH]c2c1)N1CCN(c2ccc(F)cc2)CC1,52%
COc1ccc(CCNC(=O)c2c(O)c3c([nH]c2=O)CCCC3)cc1,-19%
CC[C@H](C)C(=O)O[C@@H]1C[C@H](C)C=C2C=C[C@H](C)[C@@H](CC[C@H]3C[C@@H](O)CC(=O)O3)[C@H]21,121%[12.8 µM]
CCOC(=O)CSc1nc2ccccc2c(=O)n1NC(=O)c1ccccc1,-3%
O=C(c1ccccn1)N(CC1CCCO1)C1(C(=O)NC2CCCCC2)CCCCC1 (stereo not drawn),33%
COc1cc(C(=O)OC2CCN(C)CC2)cc(OC)c1OC,-2%
CCOc1ccccc1/C=c1\sc2nc(-c3ccco3)nn2c1=O,11%
O=C(C1Cc2ccccc2CN1S(=O)(=O)c1cccs1)N1CCCCCC1 (stereo not drawn),32%
CCOC(=O)c1ccc(NC(=O)CN2C(=O)CNC2=O)cc1,-1%

# Pulled one by one from the entries so far (6):
SMILES,AmpC inh no det
Cc1ccc(S(=O)(=O)N2CCC(C(=O)N[C@H](C(=O)N3CCN(C)CC3)C(C)C)CC2)cc1,44%
O=C(c1ccccn1)N(CC1CCCO1)C1(C(=O)NC2CCCCC2)CCCCC1 (stereo not drawn),33%
CCOC(=O)CSc1nc2ccccc2c(=O)n1NC(=O)c1ccccc1,-3%
CCOc1ccccc1/C=c1\sc2nc(-c3ccco3)nn2c1=O,11%
COc1ccc(N(C(=O)c2ccco2)S(=O)(=O)c2cc(OC)ccc2OC)cc1,50%
CC[C@H](C)C(=O)O[C@@H]1C[C@H](C)C=C2C=C[C@H](C)[C@@H](CC[C@H]3C[C@@H](O)CC(=O)O3)[C@H]21,121%[12.8 µM]

# Other results follow:
SMILES,AmpC inh no det
Cc1cc(C(=O)N2CCC(C(F)(F)F)n3nccc32)on1 (stereo not drawn),-2%
CC1CCC/C(=C\Nc2ccc3c(c2)OCO3)C1=O (stereo not drawn),-1%
C=CCc1c(C)nc(SC)nc1Nc1ccc(C(=O)O)cc1,-11%
Cn1c(NCc2ccco2)nc2c1c(=O)n(Cc1ccc(Cl)cc1)c(=O)n2C,38%
CCOC(=O)C1C(=O)NC(N2CCN(c3ccccc3)CC2)=NC1c1ccco1 (stereo not drawn),4%
C/C=C1\C[N@@+]2(C)CC[C@@]34C(=C(C=O)[C@H]1C[C@H]32)Nc1ccccc14,-4%[12.8 µM]
CCN1CCN(C(=O)COc2ccc(S(=O)(=O)N(C)Cc3ccccc3)cc2)CC1,106%
COc1cccc(C2CC(c3ccc(C)cc3)n3nc(N)nc3N2)c1 (stereo not drawn),4µM*[single pt active]
COc1ccc(C(=O)N2CCC[C@@]3(CCN(C(=O)Nc4cccc(F)c4)C3)C2)cc1,28%
CC1=Nc2ncnn2C(c2ccccc2)/C1=N\O (stereo not drawn),-16%
O=C1c2nc3ccccn3c2C(=O)N1Cc1ccccc1,-3%
CC(=O)C1=C(C)NC(=O)NC1c1cccc(O)c1 (stereo not drawn),15%
Cc1oc(-c2ccccc2F)nc1CS(=O)(=O)CC(=O)NCCCN(C)C1CCCCC1,23%
Cc1cc(C)n(CC(O)COc2ccccc2C(=O)Nc2ccccc2)n1 (stereo not drawn),20%
CC(C)C(c1nnnn1Cc1ccc(F)cc1)N1CCN(C2CCCCC2)CC1 (stereo not drawn),-1%

# The list goes on, starting with the last 6 of the part before.
SMILES,AmpC inh no det
CC1=Nc2ncnn2C(c2ccccc2)/C1=N\O (stereo not drawn),-16%
O=C1c2nc3ccccn3c2C(=O)N1Cc1ccccc1,-3%
CC(=O)C1=C(C)NC(=O)NC1c1cccc(O)c1 (stereo not drawn),15%
Cc1oc(-c2ccccc2F)nc1CS(=O)(=O)CC(=O)NCCCN(C)C1CCCCC1,23%
Cc1cc(C)n(CC(O)COc2ccccc2C(=O)Nc2ccccc2)n1 (stereo not drawn),20%
CC(C)C(c1nnnn1Cc1ccc(F)cc1)N1CCN(C2CCCCC2)CC1 (stereo not drawn),-1%
O=C1c2ccccc2C(=O)N1Cc1nc(-c2ccccc2)no1,11%
Cc1ccc(S(=O)(=O)c2nc(-c3ccc(F)cc3)oc2SCC(N)=O)cc1,-1%
Cc1cc(OCC(=O)NC2CCS(=O)(=O)C2)c2c3c(c(=O)oc2c1)CCC3 (stereo not drawn),19%
CCOC(=O)C1CCN(C(=O)C2CCN(c3nc4ccc(OC)cc4s3)CC2)CC1,138%
CCOC(=O)CNC(=O)C(=O)c1c(O)[nH]c2ccccc12,8%
CCc1cccc(C)c1NC(=O)C1C2CCC(O2)C1C(=O)O (stereo not drawn),-10%
CN1CCN(Cc2ccc(-c3ccc(Cl)cc3)o2)CC1,19%
Cc1ncn(-c2ccccc2O)c1C,1%[5.75 µM]
CN1CCN(c2ccc(N)c(N3CCN(C)CC3)c2)CC1,10%
Cc1cc(C)cc(N(CC(=O)NCc2cccnc2)S(C)(=O)=O)c1,-8%
CC(=O)Nc1nonc1-c1nc2ccccc2n1CCC#N,-11%
COc1cccc(Nc2ncc3nc(CCc4ccccc4)c(=O)n(C[C@H]4CCCO4)c3n2)c1,47%
O=c1n(-c2ccccc2)c(=O)n(Cc2ccccn2)n1Cc1ccccn1,-2%
c1ccc2c(c1)ncn2CCn1cnc2ccccc21,-4%
CC(C)OC(=O)c1nnc(Cc2ccc(F)cc2)o1,9%
COc1ccc(OC)c(-c2cc(C(=O)N3CCN(c4ccccc4)CC3)no2)c1,55%
O=C1Cc2c([nH]c3ccc(Br)cc23)-c2ccccc2N1,16µM*!
CCn1c(=O)cc(SCC(=O)NCc2ccccn2)c2ccccc21,14%
N#Cc1c(N)nc(-c2ccccc2)nc1-c1ccccc1,-16%
Cc1csc(SCC(=O)O)n1,-6%
N#Cc1cccc(-c2cncnc2NCc2cccnc2)c1,-4%
CCOc1ccc(-c2[nH]nc3c2C(c2ccc4c(c2)OCO4)C(C#N)=C(N)O3)cc1OC (stereo not drawn),12%
O=C(CSc1nnc(-c2c[nH]c3ccccc23)o1)N1c2ccccc2CCc2ccccc21,-4%
COc1cc(C(=O)Nc2ccc(S(=O)(=O)Nc3onc(C)c3C)cc2)cc(OC)c1OC,-14%
Cc1cc(NC(=O)CSc2nnnn2Cc2ccccc2)no1,-17%
Cc1cccc(NC(=O)c2snc3c(=O)[nH]cnc23)c1,0%
Fc1ccc(OCc2nc(-c3ccc(Br)o3)no2)c(F)c1,2.5µM*[single pt active]
CN(C)c1ccc(NC(=O)Cn2cc3c(n2)CCCC3)cc1,25%
CC(=O)Nc1ccc(-c2nnn(CC(=O)c3ccccc3)n2)cc1Cl,20%
N#Cc1nc(COc2ccccc2)oc1N1CCOCC1,5%
CCCn1c(C)nc2c(NCCN3CCCCC3)nc(C)nc21,2%
CCC(=O)N1CCc2cc(S(=O)(=O)NC(C(=O)NCc3ccc(F)cc3)C(C)C)ccc21 (stereo not drawn),18%
CCOc1cc(C2C3=C(CCCC3=O)NC3=C2C(=O)CCC3)ccc1OCCO,1%
Cc1cc(=O)[nH]c(SCc2nc3ccccc3s2)n1,-9%
COc1cccc(NC(=O)N2CCN(C(=O)C(Cc3ccc(OC)c(OC)c3)NC(C)=O)CC2)c1 (stereo not drawn),27%
COc1ccccc1-c1nn2c(C(F)(F)F)nnc2s1,24%
Cc1nn2c(=O)nc3sc4c(c3c2[nH]c1=O)CCCC4,-4%
COc1ccc(CCNC(=O)CSc2nc(C)nc3c2c(=O)n(C)c(=O)n3C)cc1OC,-3%
O=C(O)c1ccc2cc[nH]c2c1,0%
CCC(Sc1nc2ccccc2[nH]1)C(=O)Nc1cc(C)on1 (stereo not drawn),-20%
CC(CCc1nc2ccccc2s1)(c1ccc(O)cc1)c1ccc(O)cc1,2%[5.75 µM]
COc1ccc(/C(O)=C2\C(=O)C(=O)N(c3cc(C)on3)C2c2ccc(OC)c(OC)c2)cc1OC (stereo not drawn),-15%
O=S(=O)(NCCc1ccccc1)c1cccc(S(=O)(=O)N2CCOCC2)c1,11%
Nn1c(SCC(=O)Nc2ccc(F)cc2)nnc1-c1cccnc1,-10%
CCCCNC(=O)n1c(NC(=O)OC)nc2ccccc21,-1%
O=C(COC(=O)CNS(=O)(=O)/C=C/c1ccccc1)NC1CCS(=O)(=O)C1 (stereo not drawn),-4%
O=C(CSc1nc(-c2ccco2)cc(C(F)(F)F)n1)N1CCc2ccccc2C1,52%
COc1ccc2[nH]c(=O)c(CN(CCc3ccccc3)Cc3nnnn3CC3CCCO3)cc2c1 (stereo not drawn),102%
O=C(Nc1nc2ccccc2n1CCN1CCCC1)c1ccc(Cl)cc1,8%
O=C(Cc1cccs1)N1CCC(c2nc3c(nnn3Cc3ccccc3)c(=O)[nH]2)CC1,42%
CCOC(=O)N1CCN(C(=O)C2CCN(S(C)(=O)=O)CC2)CC1,-20%
Cc1ccc(CNC(=O)CN2CCN(Cc3ccc(C)cc3)C2=O)cc1,57%
COc1ccc(C(=O)NC2CCN(S(=O)(=O)Cc3ccccc3)CC2)c(OC)c1,18%
Cc1[nH]c2c(C)ccc(C)c2c1CC(=O)O,2%[5.75 µM]
COC(=O)[C@@H](NC(=O)c1cc(-c2ccccc2)nc2ccccc12)c1ccccc1,36%
COc1nc(-c2ccccc2)ccc1-c1noc(-c2ccco2)n1,0%
COc1ccc(-c2nc3cnc(N4CCOCC4)nc3n(CCc3ccccc3)c2=O)cc1,2%
CC(=O)Nc1nnc(SCC(=O)NC(C)(C)C)s1,-1%
O=C(c1cc2ccccn2n1)N1CCN(Cc2ccccc2)CC1,23%
CC(C)C1N=C2c3ccccc3N=C(SCC(=O)NCCc3ccc(S(N)(=O)=O)cc3)N2C1=O (stereo not drawn),0%

# (cont.)
SMILES,AmpC inh no det
CC(C)C(NC(=O)C12CC3CC(CC(C3)C1)C2)C(=O)O (stereo not drawn),-3%
O=C(NC12CC3CC(CC(C3)C1)C2)c1ccccc1O,-21%
CC(NC(=O)c1ccccc1)(C(=O)O)C(=O)O,-6%[5.75 µM]
CN(C)c1ccc(-c2nc(-n3ccnc3)c3ccccc3n2)cc1,70%
CCC(C)NC(=O)c1c(-c2cc(Cl)c(OC)c(Cl)c2)noc1C (stereo not drawn),34%
O=C(Nc1ccc2c(c1)CCC2)C1COc2ccccc2O1 (stereo not drawn),-7%
Cc1ccc(-c2[nH]nc3c2C(c2ccc(OC(=O)N4CCOCC4)cc2)C(C#N)=C(N)O3)cc1 (stereo not drawn),67%
CN(C(=O)COc1cc(=O)n(C)c2ccccc12)c1ccc(Br)cc1,124%
CC(C)CCOc1ccc(C(=O)CCNC(C)C(=O)O)cc1 (stereo not drawn),-4%
CCOc1ccc(CCN2C(=O)C3C4C=CC(C4)C3C2=O)cc1OCC (stereo not drawn),63%
CN(C)C(=O)c1ccc(-c2ccc3ncnc(Nc4ccccc4)c3c2)cc1,3%
CCOc1ccc(C(C)=O)cc1Cn1nc(C(=O)O)c2ccccc2c1=O,12%
CC(C)COC(=O)Cn1cnc2ccc(Br)cc2c1=O,13%
COc1ccc(C2CC(=O)C3=C(C2)Nc2ccccc2N(C(C)=O)C3c2ccco2)cc1 (stereo not drawn),71%
CC(=O)N1CCc2cc(C(=O)CN3CCN(c4cccc(Cl)c4)CC3)ccc21,95%
COc1ccc(S(=O)(=O)NCCN2CCOCC2)c2ccccc12,37%
CC1CCCCC1NC(=O)c1cn(C)c2ccc(S(=O)(=O)N3CCCC3)cc2c1=O (stereo not drawn),106%
Cc1ccccc1CS(=O)(=O)Cc1ccc(C(=O)N2CCOCC2)o1,-2%
CCCC(=O)Nc1ccc2c(c1)C(=O)N(CCC(=O)O)C2=O,-2%
CCC(=O)Nc1ccc(NC(=O)c2ccccc2Cl)nc1,-12%
CCOC(=O)C(C)n1cnc2c(nnn2-c2ccc(OC)cc2)c1=O (stereo not drawn),12%
Cc1ccc2c(c1)C(c1ccccc1)N(C(=O)C(C)C)CC(=O)N2 (stereo not drawn),31%
CC1CCCCN1C(=O)CSc1nc(C2CC2)nc2c1cnn2-c1ccccc1 (stereo not drawn),73%
NC(=O)c1c(-c2cccs2)csc1N,-16%
O=c1[nH]c(=O)n(Cc2ccccc2)c2nc(-c3ccco3)cc(C(F)(F)F)c12,-14%
CCOC(=O)c1c(C)oc(/N=C/c2ccccc2O)c1C#N,6%
NS(=O)(=O)c1cccc2cccnc12,-6%
Cc1ccc(NC2=NCC(=O)N2c2ccc3c(c2)OCCO3)c(C)c1,0%
CCC(C)NS(=O)(=O)c1ccc(NC(=O)c2c(-c3ccccc3)noc2C)cc1 (stereo not drawn),5%
Cc1cc(C)nc(NS(=O)(=O)c2ccccc2)n1,-2%
CN(C)Cc1ccccc1-c1nc(NCc2cccs2)c2ccccc2n1,44%
O=c1c(Cl)c(NCCO)ncn1-c1ccccc1,-6%
CC(OC(=O)c1cc[n+]([O-])cc1)C(=O)Nc1ccc(Cl)cn1 (stereo not drawn),-3%
COc1ccccc1C(=O)N(Cc1nc(-c2ccc(Cl)cc2)no1)C(C)C,92%
Cc1noc(C)c1-c1ccc2ncnc(NC3CC3)c2c1,7%
Cc1ccc2c(CN3C(=O)NC4(CCCCC4)C3=O)cc(=O)oc2c1C,10%

# Structures above that contain bromine, in the order listed:
SMILES,AmpC inh no det
O=C1Cc2c([nH]c3ccc(Br)cc23)-c2ccccc2N1,16µM*!
Fc1ccc(OCc2nc(-c3ccc(Br)o3)no2)c(F)c1,2.5µM*[single pt active]
CN(C(=O)COc1cc(=O)n(C)c2ccccc12)c1ccc(Br)cc1,124%
CC(C)COC(=O)Cn1cnc2ccc(Br)cc2c1=O,13%
